# Assay outcomes as filed in PubChem.
# KCNQ2 inh: KCNQ2 potassium channel inhibitors, primary screen, cell-based, CHO-K1, FluxOR thallium flux, B-score (AID 2156). O88943. 20 min; hits give low values; only compounds with negative scores are shown here; some inactives read as strong as hits. B-score at 10 µM. 310,000 tested, 1.1% active;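 active means fluorescence ratio B-score at most minus 3 library SDs, with starting brightness B-score within 2 library SDs, cut at about -5.5 in these data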
# Target sequence (O88943 whole entry, looked up): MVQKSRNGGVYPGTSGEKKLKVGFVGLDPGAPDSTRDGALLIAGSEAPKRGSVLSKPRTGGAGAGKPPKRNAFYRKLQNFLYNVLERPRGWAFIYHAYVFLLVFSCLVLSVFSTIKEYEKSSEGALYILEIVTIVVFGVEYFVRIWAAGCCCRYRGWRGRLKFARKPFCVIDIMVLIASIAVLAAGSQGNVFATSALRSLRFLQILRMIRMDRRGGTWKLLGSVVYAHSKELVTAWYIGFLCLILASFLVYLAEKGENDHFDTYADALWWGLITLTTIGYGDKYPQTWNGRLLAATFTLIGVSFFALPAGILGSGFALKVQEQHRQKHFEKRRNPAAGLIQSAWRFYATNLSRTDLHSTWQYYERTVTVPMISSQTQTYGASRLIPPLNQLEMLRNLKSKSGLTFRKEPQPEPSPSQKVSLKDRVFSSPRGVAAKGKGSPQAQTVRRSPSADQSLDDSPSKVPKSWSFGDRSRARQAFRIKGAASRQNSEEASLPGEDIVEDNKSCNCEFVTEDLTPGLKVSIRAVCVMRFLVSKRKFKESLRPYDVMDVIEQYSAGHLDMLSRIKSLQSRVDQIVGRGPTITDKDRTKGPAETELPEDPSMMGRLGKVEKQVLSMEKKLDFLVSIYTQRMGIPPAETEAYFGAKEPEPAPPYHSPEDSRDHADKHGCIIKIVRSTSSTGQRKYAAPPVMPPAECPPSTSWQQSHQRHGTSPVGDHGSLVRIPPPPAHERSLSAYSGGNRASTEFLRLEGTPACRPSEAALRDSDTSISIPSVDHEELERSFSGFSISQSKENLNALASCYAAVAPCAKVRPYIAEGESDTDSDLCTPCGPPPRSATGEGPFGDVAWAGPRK
# KCNQ2 inh baseline: recorded beside KCNQ2 inh, whose call it bears; B-score; measured here: initial fluorescence intensity artifact check;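 brightness before thallium and not channel activity; 0 = typical well and far values either way flag optical interference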
# An asterisk follows results filed as active; i = inactive.
# Below each compound: KCNQ2 inh	KCNQ2 inh baseline
Cc1cc(C(=O)OCc2nnc(-c3ccccc3)o2)c(C)n1-c1ccccc1
 : i	-0.61
S=C(NCCc1ccccc1)Nc1ccccc1N1CCOCC1
 : i	2.15
O=c1c2ccccc2nc2c3ccccc3c(NCCN3CCOCC3)nn12
 : i	1.32
O=C(Nc1ccccc1)C1=C[C@@H](c2ccccc2)C[C@@H](OCc2ccc(CO)cc2)O1
 : i	-0.5
Cc1ccc(C(=O)ONC(=O)c2ccc(Cl)cc2)cc1[N+](=O)[O-]
 : i	-1.79
Cc1cccc(Nc2n[nH]c(=S)s2)c1C
 : i	-0.77
COc1ccc(C(=O)Nc2ccccc2C(=O)NCc2cccnc2)cc1
 : i	0.16
O=C(c1cc(-c2ccc(Cl)cc2)nc2ccccc12)N1CCOCC1
 : i	1.61
Cc1ccc(S(=O)(=O)N(CC(=O)Nc2ccccc2C(=O)O)c2cccc(Cl)c2C)cc1
 : i	-1.02
O=C(Cc1nnc(NC(=O)Nc2ccc(Cl)cc2)s1)NCc1ccccc1
 : i	0.11
COC(=O)c1ccc(/C=C2/SC(=S)N(CCCC(=O)Nc3ccccn3)C2=O)cc1
 : i	-0.03
O=C(OC1CCOC1=O)c1cc(-c2ccc(Cl)cc2)nc2ccccc12 (stereo not given)
 : i	-0.77
O=C(Nc1ccc(Cl)cc1)Nc1ccon1
 : i	-1.26
CCCCNc1c(-c2cccc(-c3ccc(OC)cc3)c2)nc2ccc(C)cn12
 : -6.06*	-2.47*
Cc1cc(C)n(CCNC(=O)c2ccc3c(c2)OCO3)n1
 : i	2.5
CC(C)OC(=O)C(C#N)c1nc2ccccc2nc1N1CCN(Cc2ccccc2)CC1 (stereo not given)
 : i	-0.81
O=C(CCn1cccc1)Nc1cc(F)ccc1F
 : i	2.53
CCc1nccn1S(=O)(=O)c1ccc2ccccc2c1
 : i	0.04
CC(C)Oc1ccc(CCC(=O)NNC(=O)c2ccccc2C(=O)O)cc1
 : i	0.61
Cc1cc(Cl)ccc1N1C(=O)CC(SCCC(=O)O)C1=O (stereo not given)
 : i	1.42
C/C(=N\NC(=O)CC(C)C)c1ccc(N2CCCCC2)cc1
 : i	3.67
Cc1ncoc1C(=O)N1CCc2c([nH]c3ccccc23)C1C1CCCCC1 (stereo not given)
 : i	0.57
FC(F)(F)c1cc(-c2ccccc2)nc(NCc2cccnc2)n1
 : i	2
CCCCCCc1cc2cc(C(=O)NCc3ccccc3)c(=N)oc2cc1O
 : i	-0.44
CCC(C)NS(=O)(=O)c1cc2c3c(c1)CCC(=O)N3CCC2 (stereo not given)
 : i	-1.5
CC(=O)c1c(O)c(C)c(O)c2c1OC1=CC(=O)C(C(C)=O)C(=O)[C@@]12C (stereo not given in full)
 : i	1.21
Cc1onc(-c2ccccc2)c1C(=O)NC(CC(=O)O)c1ccc(OC(C)C)cc1 (stereo not given)
 : i	-0.47
O=c1nc(N2CCOCC2)ccn1-c1nc(-c2ccccc2)oc1-c1ccccc1
 : i	-1.26
O=C(Nc1ccc(O)cc1)c1cc2ccccc2c(=O)s1
 : i	1.12
Cc1cc2nc(/C(C#N)=C\c3ccc(-c4ccccc4C(=O)O)o3)[nH]c2cc1C
 : i	4.47

# Some of these compounds in order of count of non-hydrogen atoms, ascending:
# Below each compound: KCNQ2 inh	KCNQ2 inh baseline
Cc1cc(Cl)ccc1N1C(=O)CC(SCCC(=O)O)C1=O (stereo not given)
 : i	1.42
CCC(C)NS(=O)(=O)c1cc2c3c(c1)CCC(=O)N3CCC2 (stereo not given)
 : i	-1.5
O=C(c1cc(-c2ccc(Cl)cc2)nc2ccccc12)N1CCOCC1
 : i	1.61
CC(C)OC(=O)C(C#N)c1nc2ccccc2nc1N1CCN(Cc2ccccc2)CC1 (stereo not given)
 : i	-0.81

# Next entries follow.
# Below each compound: KCNQ2 inh	KCNQ2 inh baseline
C=CCn1cc(C(=O)N2CCc3ccccc3C2)c(=O)c2cc(S(=O)(=O)N(CC)CC)ccc21
 : i	1.07
Cc1cccc(C)c1-n1c(C)nn(-c2ncc(C(F)(F)F)cc2Cl)c1=O
 : i	0.77
C[C@]12CCC3c4ccc(OCC(=O)O)cc4CCC3C1CCC2=O (stereo not given in full)
 : i	0.77
COC(=O)CCC(=O)OC1(C)C(=O)C=C2C=C(C3CC3)N(Cc3ccc4c(c3)OCO4)C=C2C1=O (stereo not given)
 : i	0.92
CC(C)c1cc[n+](-c2nc([O-])sc2C=O)cc1
 : i	0.5
O=C(Nc1nc(-c2ccc3c(c2)OCCO3)cs1)c1ccc(S(=O)(=O)N2CCCCC2)cc1
 : i	1.17
CC(=O)N(C)Cc1ccc(C(=O)CCl)cc1
 : i	-0.24
N#Cc1c(N)nc2c(c1N)CC(=O)N2c1ccc(Cl)cc1
 : i	0.29
COc1ccc(CN2CCNC(=O)C2CC(=O)N(C)CCCN2CCOCC2)cc1C (stereo not given)
 : i	-0.06
O=C(CSc1nc2ncccc2[nH]1)c1ccc(F)cc1
 : i	-0.26
Cc1cccc(OC(=O)c2cncc(Br)c2)c1
 : i	-0.02
CCN(CC)S(=O)(=O)c1csc(C(=O)Nc2ccccn2)c1
 : i	2.17
COc1ccc(N2C(=O)C3C4C=CC(C4)C3C2=O)c([N+](=O)[O-])c1 (stereo not given)
 : i	1.8
CN(C(=O)CSc1nncc2ccccc12)C1CCCCC1
 : i	-0.14
CC1CCC2C(=O)N(c3ccccc3OC(=O)c3ccccc3F)C(=O)C2C1 (stereo not given)
 : i	0.78
COc1ccc(NC(=O)C2CCN(S(C)(=O)=O)CC2)c(OC)c1
 : i	0.01
COc1ccc(-n2c(=O)c3c4c(sc3n3c(=S)[nH]nc23)CCCC4)cc1
 : i	1.28
Cc1cc(Nc2cccc(F)c2)n2c(n1)nc1ccccc12
 : i	0.07
CCCc1ncc(C(O)c2ccccc2OC)n1C (stereo not given)
 : i	-1.2
CN(C(=O)CC1C(=O)NCCN1Cc1cccc(F)c1F)C1CCOCC1 (stereo not given)
 : i	0.31
C/C(=N\NC(=O)c1c(Br)c(C)nn1C)c1ccc(NC(=O)C(C)Oc2ccc(Cl)cc2C)cc1 (stereo not given)
 : i	-0.41
O=C(COc1ncnc2cc([N+](=O)[O-])ccc12)NC(=O)NC1CCCCC1
 : i	0.85
CS(=O)(=O)N1CCN(c2ccc(NC(=O)c3cccnc3Cl)cc2)CC1
 : i	-0.31
COc1ccccc1C(=O)N/C(=C/c1ccc(Br)cc1)C(=O)N1CCCC1
 : i	-0.18
c1nc(NC2CCCCCC2)c2[nH]cnc2n1
 : i	-0.28
O=C(CSc1nc(N2CCOCC2)nc(N2CCOCC2)n1)Nc1ccc([N+](=O)[O-])cc1
 : i	0.51
O=C(Nc1cccc(F)c1)C1CCN(C(=O)NCc2ccccc2)CC1
 : i	0.03
O=S(=O)(NC1=NCCCCC1)c1ccc2sc(NS(=O)(=O)c3ccc4ccccc4c3)nc2c1
 : i	0.51
CCOc1ccccc1C(=O)N/N=C/c1c[nH]c2ccccc12
 : i	-0.14
Cc1noc(C)c1C(=O)OCC(=O)Nc1cccc(S(N)(=O)=O)c1
 : i	4.34
CCCC(O)(CCN1CCCCC1)c1ccc(OCC)cc1 (stereo not given)
 : i	-0.54
CCCCC(=O)NC(c1ccco1)c1c(O)ccc2ccccc12 (stereo not given)
 : i	0.96
O=C1c2ccccc2C(Nc2ccc(Cl)cc2)N1CCN1CCOCC1 (stereo not given)
 : i	0.28
Cc1ccc(N2CC(C(=O)Nc3cc(C)on3)CC2=O)cc1 (stereo not given)
 : i	0.33
COc1ccc(S(=O)(=O)N2CCOC23CCN(S(=O)(=O)c2c(C)cc(C)cc2C)CC3)cc1
 : i	-0.5
O=C1C2C(c3ccccc3)C=CC(c3ccccc3)C2C(=O)N1c1ccncc1 (stereo not given)
 : i	0.3
COc1cccc(CN(C(=O)Cn2nnc(-c3ccccc3F)n2)C(C(=O)NC(C)(C)C)c2ccncc2)c1 (stereo not given)
 : i	2.9
Cc1nc2ncnn2c(N2CCN(c3cccc(C(F)(F)F)c3)CC2)c1C
 : i	-0.78
COC(=O)c1cc(C(=O)NC(C)C2CC3CCC2C3)cc([N+](=O)[O-])c1 (stereo not given)
 : i	-1.19
COC(=O)c1ccc(N=CC2=C(O)CC(c3ccccc3)CC2=O)cc1 (stereo not given)
 : i	1
Cc1ccc(C(=O)NC(N2CCCC2)C(Cl)(Cl)Cl)cc1 (stereo not given)
 : i	-1.25
CCc1nnc(NC(=O)c2ccc(S(=O)(=O)N(C)Cc3ccccc3)cc2)o1
 : i	0.54
CCc1nc2ccc(C(=O)N3CCN(c4cccc(C)c4C)CC3)cc2nc1CC
 : i	-0.76
CCOC(=O)C1CCN(C(=O)COc2ccc(N(C)S(=O)(=O)c3ccc(OCC)cc3)cc2)CC1
 : i	-0.1
COc1ccc(-c2csc(NC(=O)CSc3nnnn3C)n2)c(OC)c1
 : i	1.53
CCOc1cc(NC(=S)NCCCN2CCOCC2)c(OCC)cc1NC(=O)C1CCCCC1
 : i	-0.06
COC(=O)C(C(=O)Nc1ccccc1C)C1CCCCCC1 (stereo not given)
 : i	-0.94
CCOCCOC(=O)COc1ccc2c(-c3ccccc3)cc(=O)oc2c1
 : i	1.56
O=C(Nc1ccnn1C1CCN(Cc2ccccn2)CC1)c1cccc(F)c1
 : i	1.63
CCOC(=O)C1CCN(S(=O)(=O)c2ccc3c(c2)CCN3C(=O)C2CCC2)CC1
 : i	1.07
Fc1ccccc1/C=N/n1c(-c2cccnc2)n[nH]c1=S
 : i	0.02
CN1C(C(=O)NCc2ccccc2)CC2Cn3c(nc4ccccc43)C21 (stereo not given)
 : i	-0.17
O=S(=O)(N1CCOCC1)n1nnc2ccccc21
 : i	0.52
N/C(Cc1cccs1)=N\OC(=O)COc1ccc(Br)cc1
 : i	0.15
O=C(CCNS(=O)(=O)c1ccc2[nH]c(=O)oc2c1)NCc1ccc(F)cc1
 : i	-0.01
CC(=O)Nc1ccc(OCc2ccc3c(c2)OCO3)cc1
 : i	-1.13
CCOc1ccccc1N(CC(=O)Nc1ccc(S(=O)(=O)N2CCOCC2)cc1)S(=O)(=O)c1ccc(Cl)cc1
 : i	2.42
CCC(Oc1ccccc1)C(=O)NC1CCCCCC1 (stereo not given)
 : i	0.07
COc1ccccc1CN1C[C@@H]2C[C@@H](c3cccc(C)c3)N3CCC[C@@]23C1=O
 : i	4.2
CCOC(=O)c1c2ccc(OCC(=O)N/N=C/c3ccc(Cl)cc3)cc2n2ccccc12
 : i	2.86

# Three entries from above in a different format:
SMILES,KCNQ2 inh,KCNQ2 inh baseline
COc1ccc(-c2csc(NC(=O)CSc3nnnn3C)n2)c(OC)c1,i,1.53
CCOc1cc(NC(=S)NCCCN2CCOCC2)c(OCC)cc1NC(=O)C1CCCCC1,i,-0.06
COC(=O)C(C(=O)Nc1ccccc1C)C1CCCCCC1 (stereo not given),i,-0.94

# Next part:
# Below each compound: KCNQ2 inh	KCNQ2 inh baseline
COc1ccc(NS(=O)(=O)c2cccc(C(=O)N/N=C/c3cn(-c4ccccc4)nc3-c3ccccc3)c2)cc1
 : i	-1.27
Cc1cccc(N2N=C(C(=O)Nc3nc(C)cs3)CCC2=O)c1
 : i	1.58
COc1ccc(CN2CCN(c3cc(C)nc4c5c(C)cc(C)nc5nn34)CC2)cc1F
 : i	1.96
CCSc1nnc(NC(=O)NC(CC)(C(F)(F)F)C(F)(F)F)s1
 : i	1.43
CCOC(=O)c1c(CSc2ccccc2)n(C)c2ccc(O)c(CN3CCOCC3)c12
 : i	1.32
Cn1cc(CNC(=O)C2c3ccccc3Oc3ccccc32)cn1
 : i	0.83
Cc1cc(N)n(-c2ccc(Cl)cc2)n1
 : i	0.55
N#Cc1ccc2[nH]c(CO)c(-c3ccccc3)c2c1
 : i	1.99
CCOC(=O)CSc1nc2c(sc(=S)n2-c2ccccc2)c(=O)n1-c1ccc(OC)cc1OC
 : i	1.09
Cc1ccc(SCC(=O)N2CC(C)OC(C)C2)cc1 (stereo not given)
 : i	2.43
COc1ccc(CCNCC(=O)Nc2ccc(OC(F)F)cc2)cc1
 : i	-0.11
CCC(=O)c1ccc(O)cc1
 : i	2.65
COc1ccc(/C=N/OC(=O)Nc2ccccc2OC)cc1
 : i	0.92
COc1ccc(-c2cc(-c3c(O)c(OC)c4occc4c3OC)[nH]n2)cc1OC
 : i	2.19
O=C(N/N=C/C=C/c1ccco1)c1ccncc1
 : i	0.26
C/C(Cn1nnc2ccccc21)=N\NC(=O)c1cccc(Br)c1
 : i	-0.95
CCN(CC(=O)N1CCOCC1)S(=O)(=O)c1ccc(C)cc1
 : i	0.75
CSc1nc(C)c(CCOC(=O)c2cccc(Cl)c2)c(=O)[nH]1
 : i	-0.9
CC(=O)Nc1ccc(NC(=O)c2ccccc2S(=O)(=O)c2ccc([N+](=O)[O-])cc2)cc1
 : i	-0.27
c1ccc(-n2nnnc2OCCOc2nnnn2-c2ccccc2)cc1
 : i	0.85
CC(C)c1ccc(NC(=O)C2CCN(S(=O)(=O)c3ccc4c(c3)NC(=O)CO4)CC2)cc1
 : i	1.28
NC1=NC(=O)C2(COC(c3ccccc3Cl)OC2)S1 (stereo not given)
 : i	1.28
CCCCCOC(=O)Cn1c(=O)oc2ccc(C)cc21
 : i	-1.27
COC(=O)C1=NN(c2ccccc2)C2(S1)SC(C(C)=O)=C(C)N2c1ccccc1 (stereo not given)
 : i	-1.43
Cc1nnc2ccc(-c3cccc(NC(=O)Cc4cccs4)c3)nn12
 : i	-2.25
Cc1[nH]n(-c2ccc([N+](=O)[O-])cc2)c(=O)c1C=NCCc1c(C)[nH]c2ccccc12
 : i	0.04
Cn1nc(C(F)(F)F)c(-c2ccc(F)cc2)c1NC(=O)c1cccnc1
 : i	0.96
COC(=O)c1ccc(/C=C(\C#N)c2nc3ccccc3s2)cc1
 : i	-3.04
CCn1c(CC(=O)Nc2ccccc2)nnc1SCC(=O)N1CCOCC1
 : i	1.34

# Not all compounds are listed; count on the stated rates, not on these rows.
